miR-21 FLuc: raises the signal of a miR-21 reporter | HeLa miR-21 FLuc reporter, luciferase, 48 h | Potency, µM (doses to about 38.3 µM), for inactives: at the top dose reporter change, positive = more light | 340,000 tested, under 10 active; active = well fitted rising curve with a large enough effect; inconclusive = small, poorly fitted or top-dose-only effect; inactive = no such curve, though single readings can be large or run the other way;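 further: % of control where 0% means no effect; miR-21 action dims this reporter so a rising signal means less miR-21 action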
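HeLa cells stably expressing CMV-driven firefly luciferase with a downstream miR-21 binding sequence, endogenously expressing miR-21, were treated with titrations (up to about 40uM final) for 48 hours at 37 degree Celsius. Luciferase luminescence was read after lysis.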
* marks the source's active call; other numbers are inactive results; ? = inconclusive; [ ] = dose if it differs, or a comment. The list is partial; count on the stated rates, not on these rows.

SMILES	miR-21 FLuc
COc1ccc(-n2c(=O)c3c4c(sc3n(CC(=O)C(C)(C)C)c2=O)CCCC4)c(OC)c1	-5.5%
Cc1ccccc1Cc1c(C)nc2nc(SCC(=O)N(C)c3ccccc3)nn2c1C	-2.3%
COc1ccc(Cl)cc1NC(=O)C1CCCN(S(=O)(=O)c2ccc3c(c2)CCCC(=O)N3)C1 (centres undefined)	?
COc1ccc(NC(=O)CN2C(=O)C(c3ccccc3)=NC23CCC(C)CC3)cc1Cl (centres undefined)	?
O=C(NCc1ccccc1Cl)C1CCC(CNS(=O)(=O)c2ccc(Br)s2)CC1 (centres undefined)	-0.7%
Cc1ccc(NC(=O)CN2C(=O)CCc3cc(S(=O)(=O)N4CCCCC4)ccc32)cc1N(C)C	18.1%
Cc1ccc(OCc2cc(=O)n3c4c(sc3n2)CCCC4)c(C)c1	-1.0%
O=C(NCc1ccc2c(c1)CCN2C(=O)c1ccc(Cl)cc1)c1cccc(F)c1	25.3%
COc1ccc(/C=C/C(=O)Nc2ccc3nc4c(c(Nc5ccccc5OC)c3c2)CCCC4)cc1	-6.8%
CC(C)c1ccc(-c2noc(SCC(=O)N(C)c3ccc(F)cc3)n2)cc1	25.4%
Cc1cc(NC(=O)CCCn2c(C)c3cnn(-c4ccccc4)c(=O)c3c2C)ccc1Br	21.2%
CCCN(C(=O)c1cc2c(s1)-c1ccccc1OC2)c1ccccc1F	4.9%
O=C(CCn1c(=O)c2ccccc2n(Cc2ccc(F)cc2Cl)c1=O)NCc1ccc2c(c1)OCO2	-1.1%
Cc1nc(C)c(-c2ccc(SCC(=O)Nc3cccc(C)c3C)nn2)s1	-16.1%
Cc1cccc(NC(=O)C(NS(=O)(=O)c2cccc3nsnc23)c2ccccc2)c1C (centres undefined)	-0.5%
O=C(NCCc1csc2nc(-c3ccccc3F)nn12)c1ccco1	3.8%
Cc1cc(NC(=O)c2cc(-c3ccc(Br)cc3)on2)nn1Cc1ccc(Cl)cc1	3.9%
CCc1ccc(C2CC(=O)NC(NC(=O)c3ccc(C(C)(C)C)cc3)=N2)cc1 (centres undefined)	1.9%
COc1ccc(CCNC(=O)CSCc2nc(-c3cccc(C)c3)oc2C)cc1OC	19.5%
COc1ccc(C(=O)Nc2cccc(C(=O)OCc3cc(=O)n4nc(C5CC5)sc4n3)c2)cc1	-42.8%
CCOc1ccc2c(c1)c(=O)c(S(=O)(=O)c1ccc(CC)cc1)cn2CC	0.5%
Cc1cc(=O)[nH]c2nnc(SCc3cccc(C(F)(F)F)c3)n12	-14.8%
COc1ccc(CCNC(=O)c2c(C)oc3ncn(CC(C)C)c(=O)c23)cc1OC	-30.1%
Cc1ccccc1NC(=O)c1cc2c([nH]c1=O)CC(C)(C)CC2=O	-56.4%
CC(C)C(=O)OC1=CN(Cc2ccccc2)S(=O)(=O)c2ccccc21	21.9%
CCOC(=O)c1cccc(NC(=O)N2CCC(CN3CCCCCC3)CC2)c1	-5.4%
COc1ccc(CNC(=O)Cc2ccc(NC(=O)N3CCSc4ncccc43)cc2)cc1OC	-2.6%
CC1CCN(c2nn3c(=O)c(C(=O)NCCc4ccccc4)cnc3s2)CC1	1.6%
CCOC(=O)c1c(NC(=O)c2cc(OC)c(OC)c(OC)c2)sc2c1CCCC2	-1.9%
CCCCCOc1ccc(NC(=O)Cc2csc(C)n2)cc1	-8.6%
Clc1ccc(-c2cn3ncsc3n2)cc1	-37.8%
COc1ccccc1-n1c(-c2ccc(C)cc2)cn2c3c(=O)n(C)c(=O)n(C)c3nc12	-9.3%
CCCc1nn2c(=O)cc(COC(=O)c3ccc(NC(=O)COc4ccc(F)cc4)cc3)nc2s1	-7.1%
CC(C)OCCCN1C(=O)c2[nH]nc(-c3ccccc3O)c2C1c1cccc(OCc2ccccc2)c1 (centres undefined)	?
Cc1ccc(-c2cn3cccnc3n2)cc1NC(=O)Cc1ccccc1	-3.7%
O=C(NCC(c1cccs1)S(=O)(=O)c1cccs1)c1ccc(Cl)cc1 (centres undefined)	5.8%

Sorted by molecular weight (smallest number first): part of the list above
SMILES	miR-21 FLuc
Clc1ccc(-c2cn3ncsc3n2)cc1	-37.8%
CCCCCOc1ccc(NC(=O)Cc2csc(C)n2)cc1	-8.6%
Cc1ccccc1NC(=O)c1cc2c([nH]c1=O)CC(C)(C)CC2=O	-56.4%
Cc1ccc(-c2cn3cccnc3n2)cc1NC(=O)Cc1ccccc1	-3.7%
CC(C)C(=O)OC1=CN(Cc2ccccc2)S(=O)(=O)c2ccccc21	21.9%
CCOc1ccc2c(c1)c(=O)c(S(=O)(=O)c1ccc(CC)cc1)cn2CC	0.5%
CCOC(=O)c1cccc(NC(=O)N2CCC(CN3CCCCCC3)CC2)c1	-5.4%
CC1CCN(c2nn3c(=O)c(C(=O)NCCc4ccccc4)cnc3s2)CC1	1.6%
O=C(NCC(c1cccs1)S(=O)(=O)c1cccs1)c1ccc(Cl)cc1 (centres undefined)	5.8%
COc1ccccc1-n1c(-c2ccc(C)cc2)cn2c3c(=O)n(C)c(=O)n(C)c3nc12	-9.3%
CCOC(=O)c1c(NC(=O)c2cc(OC)c(OC)c(OC)c2)sc2c1CCCC2	-1.9%
COc1ccc(C(=O)Nc2cccc(C(=O)OCc3cc(=O)n4nc(C5CC5)sc4n3)c2)cc1	-42.8%
COc1ccc(CNC(=O)Cc2ccc(NC(=O)N3CCSc4ncccc43)cc2)cc1OC	-2.6%
CCCc1nn2c(=O)cc(COC(=O)c3ccc(NC(=O)COc4ccc(F)cc4)cc3)nc2s1	-7.1%

Later entries:
SMILES	miR-21 FLuc
Cc1ccc(C)c(N(C)C(=O)Cc2c(C(=O)O)[nH]c3ccc(Cl)cc23)c1	-2.2%
Cc1ccc(-n2ncc3c(N4CCN(CCO)CC4)ncnc32)cc1Cl	-31.8%
CCn1cc(C(=O)NC(C)c2ccccc2)c(=O)c2cc(S(=O)(=O)N3CCc4ccccc4C3)ccc21 (centres undefined)	7.7%
COc1ccccc1CNC(=O)c1oc2ccc(S(=O)(=O)N3CCCCC3)cc2c1C	12.8%
Cc1ccc(Cn2c(SCC(=O)NCc3ccccc3Cl)nc3ccsc3c2=O)cc1	0.1%
CCCn1c(NCc2ccc(N(CC)CC)cc2)nc2ccccc21	?
Cn1c(C(=O)N2CCCC(C(=O)N3CCN(c4ccccc4)CC3)C2)cc2sccc21 (centres undefined)	10.1%
COc1ccc(S(=O)(=O)N(CC(=O)Nc2cc(Cl)ccc2C)Cc2ccccc2)cc1OC	?
COc1ccc(CCNC(=O)CCCCCn2c(=O)[nH]c3cc(OC)c(OC)cc3c2=O)cc1OC	-4.3%
COc1ccc(OC)c(NC(=O)C(Cc2ccccc2)NS(=O)(=O)c2ccc3c(c2)CCC(=O)N3)c1 (centres undefined)	-1.1%
COc1ccc(NC(=O)C2CCN(S(=O)(=O)c3ccc4[nH]c(=O)ccc4c3)CC2)c(OC)c1	-1.4%
COc1ccc(NC(=O)Cn2c(=O)n(Cc3nc(C)no3)c(=O)c3cc4c(cc32)OCO4)cc1	1.4%
COc1ccc(Br)cc1CNC(=O)c1cc2ccccn2n1	-4.9%
COc1ccccc1OCC(=O)Nc1nc2c(s1)CC(C)CC2 (centres undefined)	-32.0%
COc1ccc(C2CC(=O)N(Cc3ccc(C)cc3)c3c2c(C)nn3-c2nc(C)cc(C)n2)c(OC)c1 (centres undefined)	-3.2%
CCOC(=O)c1c(C)oc2ncnc(Nc3ccc(OCC)cc3)c12	-2.5%
COc1ccc(Nc2nnc(-c3ccc(C)c(S(=O)(=O)NCCO)c3)c3ccccc23)cc1C(N)=O	-8.3%
CC1=C(C(N)=O)C(c2cccc(F)c2)n2nc(SCc3ccccc3)nc2N1 (centres undefined)	-14.3%
Cc1cc2c(c(=O)n1-c1ccccc1)C1O[C@](c3ccsc3)(Cc3cc(C#N)ccc31)O2	0.3%[7.66 µM]
COc1ccc(NC2=C(c3ccccc3)C(=O)c3ccccc32)cc1Cl	-20.1%
COc1ccc(Cn2ccnc2SCC(=O)Nc2ccc3c(c2)OCO3)cc1	-4.5%
CCc1ccccc1NS(=O)(=O)c1ccc2c(c1)CCCN2C(=O)C1CCC1	27.8%
O=C(NCc1ccc(F)cc1)C(=O)Nc1ccc2nc3n(c(=O)c2c1)CCCCC3	-16.8%
O=C(c1ccccc1)c1ccc2nc(N3CCN(c4ccc(F)cc4)CC3)c3nncn3c2c1	0.1%
Cc1cccn2c(=O)cc(COc3ccc(NC(=O)COc4ccc(F)cc4)cc3)nc12	-5.2%
Cc1ccc(CNc2oc(-c3ccc(COc4ccc(C)cc4)o3)nc2C#N)cc1	-16.1%
COc1cccc(NC(=O)Cn2c(=O)n(CCc3cccc(C)c3)c(=O)c3ccccc32)c1	-8.9%
CCOC(=O)C1CCN(C(=O)c2ccc3c(=O)n4nc(Nc5ccccc5)sc4nc3c2)CC1	7.5%
COc1ccc(-c2nn3c(=O)cc(CN4CCN(C(=O)/C=C/c5ccccc5)CC4)nc3s2)cc1	-4.7%
COc1ccc(C(=O)Nc2cc(NC(=O)c3ccco3)ccc2OC)cc1Cl	-4.4%
Cc1cccc(-c2c3c(=O)n(C)c(=O)n(C)c3c3c(C)nc4ccccc4n23)c1	-0.4%
Cc1cccc(C(=O)Nc2cccc(C(=O)OCc3cc(=O)n4nc(C5CC5)sc4n3)c2)c1	-52.2%
CCOC(=O)c1cc2c(=O)n3ccccc3nc2n(CC(C)C)c1=NC(=O)c1cc2ccccc2o1	-5.3%
CCOC(=O)C1CCCN(Cc2cn3c(-c4cccc(Br)c4)nnc3s2)C1 (centres undefined)	3.3%
COc1ccc(C2=C(Nc3ccc(Br)c(C)c3)c3ccccc3C2=O)cc1	23.1%
COc1ccc(-c2cc(-c3ccccc3)nc(SCC(=O)Nc3ccccc3C)c2C#N)cc1	1.8%
CCc1ccc(NCc2cc3ccc(OC)cc3n(CC(=O)Nc3ccccc3C)c2=O)cc1	-4.3%
CCOC(=O)C1CCCN(CCC(=O)Nc2ccc(OC)cc2OC)C1 (centres undefined)	-3.3%
CCn1nc(C)c(CCN(C)C(=O)Nc2ccc(C)c(Cl)c2)c1C	-11.8%
CCCCN(CC)CCCNC(=O)c1cc2c(=O)[nH]c3ccccc3c2n1C	-23.9%
CCc1ccc(NC(=O)C2CCCN(c3nnc(C)c4c(C)n(-c5ccccc5)nc34)C2)cc1 (centres undefined)	-1.1%
COc1ccc(CCNC(=O)c2c(O)nc3c(C)cccn3c2=O)cc1	0.3%
O=C(O)c1ccc2c(c1)ncn2-c1ccc(F)c(F)c1	-7.5%
CCOC(=O)c1cc(C)n(CC2CCC(C(=O)Nc3ccccc3OC)CC2)c1C (centres undefined)	-0.4%
CCc1cccc(C)c1NC(=O)C1CCN(c2nnc(C)c3c(C)n(-c4ccccc4)nc23)CC1	-3.9%
COc1ccccc1CC(=O)Nc1ccc2nc(Nc3cccc(C(F)(F)F)c3)cc(C)c2c1	?
CCN(c1ccccc1)S(=O)(=O)c1nnc(NC(=O)C2CCCCC2)s1	-1.7%
COCCNc1ccc2cc(S(=O)(=O)N3CCCCC3)ccc2n1	-3.7%
CC(=O)N1CCc2c(sc3c2c(=O)n(Cc2ccccc2)c(=O)n3Cc2ccc(Cl)cc2)C1	0.8%
COc1cccc(CNC(=O)Cn2c(=O)n3nc(-c4cccc(F)c4)nc3c3ccccc32)c1	0.5%
CCCSc1ncc(Cl)c(C(=O)NCc2ccc(C)cc2)n1	-4.6%
Cc1ccc(CNC(=O)C2CCCN(S(=O)(=O)c3ccc4c(c3)oc(=O)n4C)C2)cc1 (centres undefined)	0.3%
COc1ccccc1CNC(=O)CCCn1c(=O)c2ccccc2n(CC(=O)Nc2ccc(C)cc2Cl)c1=O	2.7%
COc1ccccc1N1CCN(c2ncc3c(n2)CCN(Cc2ccc(C)s2)C3)CC1	-3.7%
Cc1ccn2c(Nc3ccc(C(C)C)cc3)c(-c3cccs3)nc2c1	-51.1%
Cc1ccc(OCC(=O)Nc2ccc3nc(SCCOc4ccccc4)sc3c2)cc1	-5.6%
CCn1c(CN2CCCCC2)nc2cc(NC(=O)c3cccc([N+](=O)[O-])c3)ccc21	12.3%
COc1ccccc1NC(=O)CN1C(=O)CCSc2ccccc21	-9.3%
Cc1nc2nc(NCc3ccc(Br)cc3)[nH]n2c(=O)c1Cc1ccccc1	-0.6%
Cc1ccc(C(=O)Nc2ccc3nc(SCC(=O)N4CCc5ccccc54)sc3c2)cc1	-10.3%

(cont.)
SMILES	miR-21 FLuc
CCN(C(=O)C(=O)Nc1ccc2nc3n(c(=O)c2c1)CCCCC3)c1ccc(F)cc1	10.3%
COc1ccc(N2CCN(C(=O)CSc3nc(-c4ccc(C(C)C)cc4)no3)CC2)cc1	1.0%
CCC(=O)C1=C(c2ccccc2)N(C(=O)CC)n2c(nnc2-c2ccccc2)S1	3.2%
Cc1cccc(Cn2c(C)c(CNC3CCCCC3)c(C(=O)O)c2C)c1	0.1%
Cc1cc(C)cc(NC(=O)CSc2nc3c(oc4ccccc43)c(=O)n2-c2ccccc2F)c1	-2.1%
CCc1ccc(NC(=O)Cn2c(-c3cncs3)nc3ccccc32)cc1	0.2%
CCOc1ccc(S(=O)(=O)NCCc2csc3nc(-c4ccc(F)cc4)nn23)cc1	22.8%
Cc1cc(C)c(NC(=O)Cn2c(=O)n(CC3CCCO3)c(=O)c3ccccc32)c(C)c1 (centres undefined)	3.2%
COC(=O)c1cccc(NC(=O)N(C)CCc2c(C)nn(C)c2C)c1	-8.1%
COc1ccc(-c2nc(SCC(=O)NC3CCCC3)c(-c3ccccc3)[nH]2)cc1OC	4.3%
CCCC12CN3CC(C)(CN(C1)C3c1cn(C)c3ccccc13)C2=O (centres undefined)	?
Cc1ccc2[nH]c(CSc3nnc(NC(=O)c4ccccc4F)s3)cc(=O)c2c1	12.3%
COc1ccc(C2CC(=O)c3c([nH]c(C(=O)OC4CCCCCC4)c3C)C2)cc1 (centres undefined)	-1.7%

Screening results deposited in PubChem by National Center for Advancing Translational Sciences (NCATS).
